VDR inhibitor: blocks the human vitamin D receptor. P11473. VDR-SRC2-3 peptide fluorescence polarization, 2 h. Potency, µM, for the others: max response, negative = inhibition, hits mostly inhibitors. 400,000 tested, 0.93% active. AID 504847; active = well fitted inhibition curve with a large enough effect; inconclusive = small, poorly fitted or top-dose-only effect, or another doubt; inactive = no such curve, though single readings can be large or run the other way; also: series mostly up to about 120 µM
Target sequence (P11473 whole entry, looked up): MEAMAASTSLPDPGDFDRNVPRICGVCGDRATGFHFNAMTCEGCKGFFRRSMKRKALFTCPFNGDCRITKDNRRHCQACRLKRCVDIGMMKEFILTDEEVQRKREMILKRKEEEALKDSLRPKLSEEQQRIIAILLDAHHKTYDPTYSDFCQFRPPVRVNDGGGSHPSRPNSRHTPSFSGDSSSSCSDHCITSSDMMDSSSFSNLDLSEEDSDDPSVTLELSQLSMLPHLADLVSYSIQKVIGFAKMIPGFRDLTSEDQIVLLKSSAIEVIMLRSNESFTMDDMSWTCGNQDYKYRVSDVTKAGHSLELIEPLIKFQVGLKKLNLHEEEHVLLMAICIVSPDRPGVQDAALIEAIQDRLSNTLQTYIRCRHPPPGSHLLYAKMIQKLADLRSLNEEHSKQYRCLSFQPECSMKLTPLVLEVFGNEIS
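Measured by FP: displacement of SRC2-3 coactivator peptide from VDR by library compounds, following a two-hour ambient incubation.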
* = called active by the depositor; u = inconclusive; & = joins results of further samples; [ ] = remark or other dose. % is scaled to controls: 0 for no effect and ±100 for the full control effect; potency is read from the fitted curve at half-maximal effect. Some of the compounds tested; the hit share may differ from the screen's.

No.	SMILES	VDR inhibitor
1	S=C(NCc1ccc2c(c1)OCO2)NCc1ccco1	-5.9%
2	COC(=O)c1c(NS(C)(=O)=O)sc2c1CCCC2	-2.9%
3	COc1ccc(-c2noc(CN(C)C(=O)c3ccc4c(c3)OCO4)n2)cc1OC	5.1%
4	N/C(Cn1cncn1)=N\NC(=O)C(=O)Nc1cccc(C(F)(F)F)c1	10.1%
5	COc1cc(OC)c2c(OC)c(-c3ccc4c(c3)OCO4)c(=O)oc2c1	4.7%
6	CCC1Sc2ccc(S(=O)(=O)CCC(=O)Nc3ccccc3Br)cc2NC1=O (stereo not drawn)	-9.6%
7	COCCN1CCN(C(=O)c2ccc3oc(CCc4ccccc4)nc3c2)CC1	-11.7%
8	O=C(O)c1cc(-c2ccccc2)nn1Cc1ccccc1	u
9	CCC(=O)Nc1cc(-c2cn3cccnc3n2)ccc1OC	-3.3%
10	O=C(CCCn1cncn1)N1CCCC(N2CCN(c3ccc(F)cc3)CC2)C1 (stereo not drawn)	6.0%
11	O=C1C(=Cc2cccn2-c2ccc(O)cc2)C(=O)c2ccccc21	19.7%
12	Cc1cc2ncn(CCC(=O)NC(C)(C)C)c2cc1C	4.2%
13	CC1CCC(NC(=O)c2ccc(S(C)(=O)=O)cc2)CC1 (stereo not drawn)	-8.1%
14	Cc1c(OC(C)C(=O)NCC(O)c2ccccc2)ccc2c3c(c(=O)oc12)CCCC3 (stereo not drawn)	-13.9%
15	COc1cc(/C=C(/C#N)c2nc3ccccc3[nH]2)ccc1OC(=O)c1ccco1	-0.8%
16	COc1cccc(OCc2cc(C(=O)N3CCN(c4ccccc4O)CC3)no2)c1	-1.5%
17	O=C(NC1CCCCC1)N1CCCC1	-1.6%
18	CCN(CC)c1ccc(NC(=O)CC2Oc3ccccc3NC2=O)c(C)c1 (stereo not drawn)	-13.7%
19	Cc1ccc2c(=O)cc(C(=O)Nc3sc4c(c3C(=O)NCC3CCCO3)CCCC4)oc2c1C (stereo not drawn)	9.5%
20	Cc1oc2ccc(O)c(CN(C)Cc3ccccc3)c2c1C(=O)Nc1cccc(C(F)(F)F)c1	2.4%
21	COCC(=O)Nc1ccc2c(c1)OCC(=O)N2Cc1ccc(C)cc1	-4.1%
22	O=C1CC(c2ccccc2F)c2cc3c(cc2N1)CCC3 (stereo not drawn)	2.8%
23	CCN1C(=O)C(CC(=O)Nc2ccc(OC)cc2)N(CCc2ccccc2F)C1=S (stereo not drawn)	3.4%
24	CCCCC[C@H](O)/C=C/[C@@H]1[C@@H](C/C=C\CCCC(=O)O)[C@@H](O)C[C@@H]1O	2.4%&2.8%
25	Cc1ccn2c(=O)nc(SCC(=O)N3CCCc4ccccc43)nc2c1	11.3%

The final 4 compounds of the section above come first, to join the parts:
No.	SMILES	VDR inhibitor
22	O=C1CC(c2ccccc2F)c2cc3c(cc2N1)CCC3 (stereo not drawn)	2.8%
23	CCN1C(=O)C(CC(=O)Nc2ccc(OC)cc2)N(CCc2ccccc2F)C1=S (stereo not drawn)	3.4%
24	CCCCC[C@H](O)/C=C/[C@@H]1[C@@H](C/C=C\CCCC(=O)O)[C@@H](O)C[C@@H]1O	2.4%&2.8%
25	Cc1ccn2c(=O)nc(SCC(=O)N3CCCc4ccccc43)nc2c1	11.3%
26	COc1ccc(OCCNc2c([N+](=O)[O-])c(=O)oc3ccccc23)cc1	-15.1%
27	O=C(c1cc(C(F)(F)F)cc(C(F)(F)F)c1)N1CCC2(CCCN(Cc3nccs3)C2)CC1	u
28	O=C1CCC(=O)N1CN(Cc1ccco1)CN1C(=O)CCC1=O	-12.1%
29	CCOC(=O)c1sc(N2C(=O)C(O)=C(C(=O)c3ccc(C)o3)C2c2cccc([N+](=O)[O-])c2)nc1C (stereo not drawn)	u
30	Cn1c(=O)c2c(O)cc(=O)[nH]c2n(-c2ccccc2)c1=O	4.8%
31	O=C(CCc1nnc(Cc2ccc(-c3ccccc3)cc2)o1)NCCc1ccccn1	7.1%
32	O=C(NC(NCC1CCCO1)C(Cl)(Cl)Cl)c1cccc2ccccc12 (stereo not drawn)	9.5%
33	O=C1NC(SCCCF)=N/C1=C/c1ccc(-n2cncn2)cc1	-2.8%
34	Cc1ccsc1C1C(C#N)=C(N)OC2=C1C(=O)CC(C)(C)C2 (stereo not drawn)	0.9%
35	Cc1ccc(Nc2ccc([N+](=O)[O-])ccc2=O)cc1	-1.1%
36	Cc1cc(C)c(NC(=O)CN2C(=O)NC3(CCCc4ccccc43)C2=O)c(Cl)c1 (stereo not drawn)	20.6%
37	O=C(NCCc1ccc(Cl)cc1)C(=O)NCC(c1ccco1)S(=O)(=O)c1cccs1 (stereo not drawn)	-11.3%
38	O=C(CN1C(=O)c2ccccc2S1(=O)=O)Nc1ccccc1	12.0%
39	O=C(CCNS(=O)(=O)c1ccc(OC(F)(F)F)cc1)NCCc1c[nH]c2ccccc12	-24.1%
40	COc1ccccc1-n1c(=S)[nH]c2c(sc(=S)n2-c2ccc(C)cc2C)c1=O	u
41	CCc1ccccc1Nc1nc2ccccc2n2cnnc12	-0.3%
42	C=CCc1cc(/C=C2/NC(=S)NC2=O)cc(OC)c1O	-0.9%
43	CCOc1ccccc1NC(=O)C1CCN(S(=O)(=O)c2c(C)noc2/C=C/c2ccc(C)cc2)CC1	11.2%
44	CC(C)c1ccc(CNC(=O)C(=O)NCC2CCCO2)cc1 (stereo not drawn)	-20.6%
45	NC(=O)c1ccc(NC(=O)CSc2nnc(-c3ccncc3)n2Cc2ccco2)cc1	-11.8%
46	Cc1ccc(NC(=O)c2ccc(NCCCN3CCC(C)CC3)c([N+](=O)[O-])c2)cc1F	-0.6%
47	O=C(Nc1ccc2[nH]ncc2c1)c1ccccc1Cl	-2.2%
48	Oc1cccc2ccc(Nc3ccccn3)nc12	10.6%
49	CCN(CC)c1nc(C)nc2c1sc(=S)n2C	0.9%
50	CCC(=O)N(CCN1CCOCC1)Cc1cc2cc3c(cc2nc1Cl)OCO3	4.4%
51	CN(C)c1cc[n+](CCC(=O)Nc2cccc([N+](=O)[O-])c2N)cc1	-0.2%
52	COc1cccc(NC(=O)N2CCC(NC(=O)C(Cc3cccc(C)c3)NC(C)=O)CC2)c1 (stereo not drawn)	10.4%
53	Nc1ccc(N=Nc2ccc(O)cc2)c(N)n1	3.2%
54	COC(=O)CC1Oc2ccccc2-n2cc(-c3ccccc3)nc21 (stereo not drawn)	-4.2%
55	CCCCNC(=S)N(C)/N=C/c1ccc(OCC(=O)Nc2c(C)cc(C)cc2C)c(OC)c1	48.8%[activator]
56	COc1ccc(-c2noc(-c3ccc4c(c3)OCO4)n2)cc1	-3.6%
57	Cc1cc(NC(=O)CSc2nc(C)c(C)n2CC(C)C)no1	-1.9%
58	CCC(=O)N1CCN(c2ccccc2NC(=O)COc2ccccc2Cl)CC1	1.3%
59	Cc1cc(-c2n[nH]c(=S)n2/N=C/c2ccccc2[N+](=O)[O-])n[nH]1	-13.3%
60	Cn1nc(C(F)(F)F)c(C(=O)Nc2ccc(F)cc2F)c1Sc1ccc(Cl)cc1	9.8%
61	NS(=O)(=O)c1cccc(NC(=O)COC(=O)C2CCCCC2)c1	-15.2%
62	Cc1ccc(NC2=C(Cl)C(=O)OC2OC(C)C)c(C)c1 (stereo not drawn)	-1.9%
63	Cc1ccc(C(=O)NC(=S)Nc2ccc3[nH]c(=O)[nH]c3c2)c(C)c1	-18.1%
64	COc1ccc(/C=C/C(=O)OCC(=O)Nc2ccc3[nH]c(=O)[nH]c3c2)cc1OC	-5.4%
65	OCC1(Cc2ccccc2)CCN(Cc2cc3ccccc3o2)CC1	-6.2%
66	CS(=O)(=O)c1ccccc1C(=O)N(CCC1=CCCCC1)c1c(N)n(Cc2ccccc2)c(=O)[nH]c1=O	-16.6%
67	CCC(=O)NC(NC(=S)Nc1cccc2cccnc12)C(Cl)(Cl)Cl (stereo not drawn)	-27.6%
68	Cc1ccc(C)c(C2C(C#N)=C(N)Oc3cc(C)oc(=O)c32)c1 (stereo not drawn)	10.0%
69	COC(=O)[C@@H]1C[C@@]2(O)[C@@H](O)[C@@H](O)[C@@H](O)C[C@H]2N1Cc1ccc(C(F)(F)F)cc1	-12.3%
70	CN(C(=O)COC(=O)c1ccccc1Cc1ccccc1)C1CCS(=O)(=O)C1 (stereo not drawn)	6.0%
71	COc1ccc(C2CC(=O)Nc3c2c(=O)nc2c(C)cccn32)cc1 (stereo not drawn)	8.0%
72	CC(C)[N+](C)(CCOC(=O)C1c2ccccc2Oc2ccccc21)C(C)C	-3.6%&-6.2%&0.1%
73	O=C(CCCCCNc1nc(=S)[nH]c2ccccc12)NCCC1=CCCCC1	-11.2%
74	O=C(C1=C[C@H](c2csc3ccccc23)C[C@H](OCCCCO)O1)N1CCOCC1	-7.7%
75	COc1cc2c(c(OCC(=O)NC(C)C)c1)C(=O)O[C@@H](C)CCCC(=O)CCCCC2	-1.3%

Further results
No.	SMILES	VDR inhibitor
76	COc1ccccc1NS(=O)(=O)c1cc(NC(=O)CCC(=O)c2cccs2)ccc1Cl	0.2%
77	CC(=O)Nc1nc(C)c(C(C)=O)s1	-1.6%
78	CCC1(c2ccccc2)NC(=O)N(CC(=O)Nc2ccccc2N2CCCC2)C1=O (stereo not drawn)	11.8%
79	O=S(=O)(NCCOc1ccccc1F)c1ccc(Cl)cc1F	-10.6%
80	N/C(=N\OC(=O)CCCOc1ccccc1)c1ccc(Br)cc1	4.9%
81	C=CCN(c1ccccc1)S(=O)(=O)c1ccc2c(c1)N(C(C)=O)CCO2	7.5%
82	Fc1ccccc1C(NCCc1ccc(Cl)cc1)c1nnc(-c2ccccc2)o1 (stereo not drawn)	-9.1%
83	CN(C(=O)CCNC(=O)N1CC(=O)Nc2ccccc21)C1CCCCC1	-5.3%
84	CCn1nc(CC(=O)Nc2ccc(-n3cnnn3)c(C)c2)c2ccccc2c1=O	4.9%
85	Cc1nc(CN2CCN(Cc3nc(C(c4ccccc4)c4ccccc4)no3)CC2)cs1	6.4%
86	CCCCCN1C(C(=O)c2ccccc2)=C(OC(=O)CC)c2ccccc2S1(=O)=O	-19.6%
87	CCCOc1ccc2c(c1)C(=NN=C(N)N)c1cc(OCCC)ccc1-2	-15.7%
88	O=[N+]([O-])c1ccc(CN2CCC(Cc3ccccc3)CC2)cc1	-15.3%
89	COc1ccc2cc3cc(C(=O)NCCN4CCN(c5ccccc5F)CC4)oc3nc2c1	-2.2%
90	COc1ccc(CCNS(=O)(=O)c2ccc3c(c2)CCCC3)cc1OC	-20.4%
91	C=CCCC(=O)Nc1nc(C)c(-c2csc(Nc3cc(Cl)ccc3OC)n2)s1	-4.7%
92	Cc1nn(C(C)c2n[nH]c(=S)n2-c2cccc(Cl)c2)c(C)c1[N+](=O)[O-] (stereo not drawn)	7.6%
93	CCC1CCCCN1S(=O)(=O)c1ccc(NC(=O)c2cc(=O)c3ccccc3o2)cc1 (stereo not drawn)	1.5%
94	CN(C)S(=O)(=O)n1cc(/C=C(\NC(=O)c2ccccc2Cl)C(=O)NCCN2CCOCC2)c2ccccc21	5.3%
95	NS(=O)(=O)c1cccc(NC(=O)c2cc3ccccc3o2)c1	-14.5%
96	COc1ccc(S(=O)Cc2ccc(C(=O)NC3CC3)o2)cc1 (stereo not drawn)	-6.9%
97	Cc1ccc(C)c(OCc2nc3ccccc3[nH]2)c1	12.7%
98	COc1ccc(N2CCN(C(CNC(=O)c3ccco3)c3cccnc3)CC2)cc1 (stereo not drawn)	-4.5%
99	O=C(C[C@H]1C[C@H](C(=O)N2CCCCC2)[C@@]2(CCc3ccccc3)c3[nH]c4ccc(Cl)cc4c3CCN2C1=O)NCCc1ccccn1	-11.0%
100	Cc1cc(=O)n(Cc2ccccc2)c2c1c(C)nn2C	-1.1%
101	CCOCCCNC(=O)c1cn(CC)c2ccc(S(=O)(=O)N3CCCC3)cc2c1=O	-11.1%
102	CCN(Cc1ccccc1)C(=O)CCS(=O)(=O)c1ccc2c(c1)oc(=O)n2C	1.5%&7.4%
103	Cc1cnc(C(=O)OCC(=O)NC23CC4CC(CC(C4)C2)C3)cn1	8.4%
104	CCN(CCCNC(=O)CCCn1c(=O)[nH]c2ccccc2c1=O)c1cccc(C)c1	14.7%
105	Cc1cc(N2C(=O)C(O)=C(C(=O)c3cc4ccccc4o3)C2c2cccc(Cl)c2)no1 (stereo not drawn)	-18.4%
106	CC(=O)N1C(=O)C2(Nc3ccccc3N2)c2ccccc21	-11.3%
107	CCOc1ccc(NC(=O)N2CCC(NC(=O)C(Cc3ccccc3OC)NC(C)=O)CC2)cc1 (stereo not drawn)	4.5%
108	O=C(N/N=C1\CCCc2ccccc21)C(O)c1ccccc1 (stereo not drawn)	-10.0%
109	Cc1cc(C)cc(Nc2ccc([N+](=O)[O-])nc2[N+](=O)[O-])c1	-8.4%
110	COc1ccc(-c2nc(CS(=O)(=O)CC(=O)NCc3cccc(F)c3)c(C)o2)cc1	-7.1%
111	O=C(NCc1ccccc1)c1cccc(NC(=O)N2CCSc3ncccc32)c1	4.3%
112	O=C(Nc1ccc(Br)c2ccccc12)c1ccc2ccccc2c1O	u
113	Cc1cc(-c2nn(-c3ccccc3F)cc2CNCCc2cnc[nH]2)c(C)s1	-9.0%
114	Cc1cc(C)cc(NC(=S)N=Nc2c(O)n(C)c3ccc(S(=O)(=O)N4CCOCC4)cc23)c1	-11.4%
115	CCOC(=O)C1=C(CC)Nc2ccccc2N=C1NC(=O)Cn1cnc2ccccc2c1=O	5.1%
116	Cc1cc[n+]2n1CC(O)C2 (stereo not drawn)	18.9%
117	CC(=O)OC(COc1ccc(F)cc1)Cn1cnc2ccccc21 (stereo not drawn)	-27.2%
118	O=C(Nc1ncccc1O)c1ccc(Cl)c(S(=O)(=O)N2CCCCCC2)c1	-6.8%
119	CN(Cc1cccc(-n2cccn2)c1)Cc1cn(C)nc1-c1ccccc1F	-11.4%

Bioassay records deposited in PubChem by National Center for Advancing Translational Sciences (NCATS).
